Screens (PubChem BioAssay)
FEN1 inhibitor: human FEN1 inhibition; P39748; Recombinant FEN1 flap cleavage, fluorescence, 15 min; Potency, µM (series often up to 114 µM), without a hit: at the highest dose activity change, negative = inhibition, most hits filed as inhibitors; 390,000 tested, 0.35% active; AID 588795; note: nearly all actives have a fitted effect of over 65% in size
Target sequence (P39748 whole entry, looked up): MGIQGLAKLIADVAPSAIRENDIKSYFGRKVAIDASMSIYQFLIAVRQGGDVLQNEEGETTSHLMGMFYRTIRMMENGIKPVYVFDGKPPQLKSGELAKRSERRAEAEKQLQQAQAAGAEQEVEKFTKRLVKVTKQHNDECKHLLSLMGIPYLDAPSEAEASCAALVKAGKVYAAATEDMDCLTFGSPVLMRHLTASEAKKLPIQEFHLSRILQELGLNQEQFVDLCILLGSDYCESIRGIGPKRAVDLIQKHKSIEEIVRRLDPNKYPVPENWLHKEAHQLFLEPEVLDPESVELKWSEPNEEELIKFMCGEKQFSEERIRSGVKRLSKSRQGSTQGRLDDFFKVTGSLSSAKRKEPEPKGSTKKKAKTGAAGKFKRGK
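Reaction started by adding substrate (50 nM final) to 10 nM enzyme after 15 min room-temperature compound preincubation. Reads at 0 and 15 min, with data normalized and fitted to a four-parameter Hill equation.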
N370S GC: inhibits or activates N370S mutant glucocerebrosidase; N370S GC spleen homogenate, 4MU-glucoside fluorescence; Potency, µM (doses to about 59.4 µM), inactives show top-dose activity change, negative = inhibition, most hits filed as inhibitors; 330,000 tested, 0.092% active; AID 2101;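 note: 0% = full enzyme activity and -100% = no enzyme basal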
* hit, by the source's call; ? = inconclusive; . = no result given; & = joins results of further samples. Calls come from the whole dose curve; as a rule, active = well fitted curve in the direction sought with a large enough effect; inconclusive = small, poorly fitted or top-dose-only effect, or another doubt; inactive = no such curve, though single readings can be large; an effect the other way counts as inactive or inconclusive. Unless noted, % is set by controls: 0 for no effect and ±100 for the full control effect; potency is the fitted concentration of half-maximal effect. These rows are one share of the data, and most or all hits are left out here.

CC1(C)C(=O)C=C[C@@]2(C)C1CC(O)[C@]1(C)C2CC[C@@]2(C)C(c3ccoc3)OC(=O)C3O[C@]312 (some centres not stated)
  FEN1 inhibitor: .
  N370S GC: -6%
Cc1ccc(O)c(C(=O)c2cc(C(=O)NCCC(C)C)c(=O)n(CCC(C)C)c2)c1
  FEN1 inhibitor: -12%
  N370S GC: ?
Cc1ccc(-n2c(C)cc(/C=C3\C(=O)NC(=O)N(C)C3=O)c2C)cc1C
  FEN1 inhibitor: -7%
  N370S GC: 3%
O=c1[nH]c(=O)n(CCC2=CCCCC2)c(O)c1/C=N/Nc1cccc2ccccc12
  FEN1 inhibitor: 9%
  N370S GC: -7%
Clc1ccc(CNCCc2ccc3c(c2)OCO3)cc1
  FEN1 inhibitor: 8%
  N370S GC: 2%
CC(C)OC(=O)C(O)(c1ccc(Cl)cc1)c1ccc(Cl)cc1
  FEN1 inhibitor: .
  N370S GC: -2%
CCN1C[C@]2(C)CC[C@H](OC)[C@]34C2[C@H](OC(C)=O)[C@@]2(OCO[C@@]25C[C@H](OC)[C@H]2C[C@]3(O)C5[C@H]2OC)[C@@H]14
  FEN1 inhibitor: 18%
  N370S GC: 0%
C[C@]12CCC(=O)C=C1CCC1C2CC[C@@]2(C)C1CC[C@@H]2O (some centres not stated)
  FEN1 inhibitor: 10%
  N370S GC: .
O=C1NC(=O)N(c2ccccc2)C(=O)/C1=C\C=C\c1ccccc1
  FEN1 inhibitor: -1%
  N370S GC: -21%
Cc1cccc(N2C(=O)NC(=O)/C(=C/c3cc4c(cc3[N+](=O)[O-])OCO4)C2=O)c1
  FEN1 inhibitor: -33%
  N370S GC: -5%

Cc1nnc2n1-c1ccc(Br)cc1C(c1ccccc1Cl)=NC2
  FEN1 inhibitor: -3%
  N370S GC: 3%
Nc1ccccc1C(=O)OCC(=O)N1CCc2ccccc21
  FEN1 inhibitor: 7%
  N370S GC: 21%
CC(=O)c1ccc(OC(NC(=O)c2ccco2)C(Cl)(Cl)Cl)cc1 (configuration not stated)
  FEN1 inhibitor: 2%
  N370S GC: 8%
c1ccc2c(c1)OC[C@@H](C1=NCCN1)O2
  FEN1 inhibitor: .
  N370S GC: 4%
O=C(CN1CCN(c2ccccc2F)CC1)Nc1cccnc1Cl
  FEN1 inhibitor: 0%
  N370S GC: 5%
COc1ccccc1N1CCN(CCc2ccccc2)CC1
  FEN1 inhibitor: -4%
  N370S GC: 0%
CCCCCCn1c(=O)c(C(=O)Nc2c(C)n(C)n(-c3ccccc3)c2=O)c(O)c2ccccc21
  FEN1 inhibitor: -18%
  N370S GC: 19%
C#CC1(O)CCC2C3CCC4=C/C(=N/OCC(=O)NCC(=O)NC(C(=O)O)C(C)C)CC[C@]4(C)C3CC[C@@]21C (some centres not stated)
  FEN1 inhibitor: 22%
  N370S GC: -5%
Cc1ccc(C)c(Cn2c(C(=O)O)c(C=O)c3ccccc32)c1
  FEN1 inhibitor: -4%
  N370S GC: 0%
O=C(NC1CCCCC1)Oc1cc2oc(=O)sc2cc1Cl
  FEN1 inhibitor: 3%
  N370S GC: -5%

A second format for 2 compounds above.
mol | FEN1 inhibitor | N370S GC
Cc1nnc2n1-c1ccc(Br)cc1C(c1ccccc1Cl)=NC2 | -3% | 3%
Cc1ccc(C)c(Cn2c(C(=O)O)c(C=O)c3ccccc32)c1 | -4% | 0%

(more compounds)
C[C@]12CC[C@H](O)CC1=CCC1C2CC[C@]2(C)C(=O)CC[C@@H]12 (some centres not stated)
  FEN1 inhibitor: .
  N370S GC: -2%&-4%&-8%
Cc1ncsc1CCCl
  FEN1 inhibitor: .
  N370S GC: 5%&11%
CCCCOc1ccc(CN2CCN(CC)CC2)cc1
  FEN1 inhibitor: 3%
  N370S GC: -7%
CCC(C)NC(=O)c1c(N)n(Cc2ccc3c(c2)OCO3)c2nc3ccccc3nc12 (configuration not stated)
  FEN1 inhibitor: -1%
  N370S GC: ?
CNC(=O)O/N=C(\N)Cc1csc2ccc(Cl)cc12
  FEN1 inhibitor: 0%
  N370S GC: -12%
COc1ccc(C2SCC(=O)Nc3c2c(=O)[nH]n3C2CCCCCC2)cc1OC (configuration not stated)
  FEN1 inhibitor: 1%
  N370S GC: -16%
CCN1CCN(Cc2ccccc2C)CC1
  FEN1 inhibitor: 5%
  N370S GC: -6%
Cc1ccc(-n2c(O)c(/C=N/c3ncc(Br)cc3Br)c(=O)[nH]c2=O)cc1
  FEN1 inhibitor: 7%
  N370S GC: -8%
CCC1C(c2ccccc2)NC(c2ccccc2)CC1(O)c1ccc(F)cc1 (configuration not stated)
  FEN1 inhibitor: ?
  N370S GC: -5%
Cc1ccn2nc(S(=O)(=O)Nc3c(F)cccc3F)nc2n1
  FEN1 inhibitor: 7%
  N370S GC: 1%

C=CCn1c(O)c(/C=C/C=Nc2ccccc2)c(=O)[nH]c1=O
  FEN1 inhibitor: -1%
  N370S GC: -13%
CC(C)CCN1CCN(Cc2c(F)cccc2Cl)CC1CCO (configuration not stated)
  FEN1 inhibitor: -4%
  N370S GC: -8%
O=C(C1CCC(=O)N1Cc1ccccc1Cl)N1CCC2(CC1)OCCO2 (configuration not stated)
  FEN1 inhibitor: -9%
  N370S GC: 1%
COP(=O)(OC)C(Nc1ccccc1)c1ccccc1 (configuration not stated)
  FEN1 inhibitor: 2%
  N370S GC: -5%
CN1C(=O)N(C)C(=O)C2(Cc3cc(NC(=O)c4ccccc4Cl)ccc3N3CCCC32)C1=O (configuration not stated)
  FEN1 inhibitor: -16%
  N370S GC: -20%
CCCNC(=O)N1[C@H]2CC[C@@H]1C(C(=O)OC)=C(c1ccc(C(C)=O)cc1)C2
  FEN1 inhibitor: 4%
  N370S GC: .
C[C@]12CCC3C(CC[C@H]4CC(=O)CC[C@]34C)C1CCC2=O (some centres not stated)
  FEN1 inhibitor: -1%
  N370S GC: .
CCCCCCn1c(N)c(C(=O)NCCN2CCOCC2)c2nc3ccccc3nc21
  FEN1 inhibitor: ?
  N370S GC: 3%
O=Cc1cn(CCCOc2ccccc2)c2ccccc12
  FEN1 inhibitor: -19%
  N370S GC: 4%
CN1CCCC(C(=O)c2ccccc2)C1 (configuration not stated)
  FEN1 inhibitor: 4%
  N370S GC: 3%

An excerpt from above in order of SMILES length, rising:
Cc1ncsc1CCCl
  FEN1 inhibitor: .
  N370S GC: 5%&11%
COc1ccccc1N1CCN(CCc2ccccc2)CC1
  FEN1 inhibitor: -4%
  N370S GC: 0%
Clc1ccc(CNCCc2ccc3c(c2)OCO3)cc1
  FEN1 inhibitor: 8%
  N370S GC: 2%
C=CCn1c(O)c(/C=C/C=Nc2ccccc2)c(=O)[nH]c1=O
  FEN1 inhibitor: -1%
  N370S GC: -13%
O=C(C1CCC(=O)N1Cc1ccccc1Cl)N1CCC2(CC1)OCCO2 (configuration not stated)
  FEN1 inhibitor: -9%
  N370S GC: 1%
CC(=O)c1ccc(OC(NC(=O)c2ccco2)C(Cl)(Cl)Cl)cc1 (configuration not stated)
  FEN1 inhibitor: 2%
  N370S GC: 8%
C[C@]12CCC3C(CC[C@H]4CC(=O)CC[C@]34C)C1CCC2=O (some centres not stated)
  FEN1 inhibitor: -1%
  N370S GC: .
CCCCCCn1c(N)c(C(=O)NCCN2CCOCC2)c2nc3ccccc3nc21
  FEN1 inhibitor: ?
  N370S GC: 3%
COc1ccc(C2SCC(=O)Nc3c2c(=O)[nH]n3C2CCCCCC2)cc1OC (configuration not stated)
  FEN1 inhibitor: 1%
  N370S GC: -16%
Cc1ccc(-n2c(C)cc(/C=C3\C(=O)NC(=O)N(C)C3=O)c2C)cc1C
  FEN1 inhibitor: -7%
  N370S GC: 3%
Cc1ccc(-n2c(O)c(/C=N/c3ncc(Br)cc3Br)c(=O)[nH]c2=O)cc1
  FEN1 inhibitor: 7%
  N370S GC: -8%
CCCNC(=O)N1[C@H]2CC[C@@H]1C(C(=O)OC)=C(c1ccc(C(C)=O)cc1)C2
  FEN1 inhibitor: 4%
  N370S GC: .

CCCCCCn1c(=O)c(C(=O)Nc2c(C)n(C)n(-c3ccccc3)c2=O)c(O)c2ccccc21
  FEN1 inhibitor: -18%
  N370S GC: 19%
C#CC1(O)CCC2C3CCC4=C/C(=N/OCC(=O)NCC(=O)NC(C(=O)O)C(C)C)CC[C@]4(C)C3CC[C@@]21C (some centres not stated)
  FEN1 inhibitor: 22%
  N370S GC: -5%
CCN1C[C@]2(C)CC[C@H](OC)[C@]34C2[C@H](OC(C)=O)[C@@]2(OCO[C@@]25C[C@H](OC)[C@H]2C[C@]3(O)C5[C@H]2OC)[C@@H]14
  FEN1 inhibitor: 18%
  N370S GC: 0%

Additional entries.
CC(=NC1CCN(Cc2ccccc2)CC1)c1c(O)n(C)c(=O)n(C)c1=O
  FEN1 inhibitor: -4%
  N370S GC: -15%
O=C(Cc1ccccc1)Oc1ccc(N2C(=O)CCC2=O)cc1
  FEN1 inhibitor: -1%
  N370S GC: 5%
COc1cc([C@@H]2c3cc4c(cc3[C@@H](O)C3COC(=O)C32)OCO4)cc(OC)c1O (some centres not stated)
  FEN1 inhibitor: -1%
  N370S GC: .
COC(=O)C1=C(c2ccc(F)cc2F)C[C@@H]2CC[C@H]1N2C(=O)NCCOc1ccc(OC)cc1
  FEN1 inhibitor: -1%
  N370S GC: .
CCOC(=O)c1sc(/N=C/c2c(O)n(-c3cccc(C)c3)c(=O)[nH]c2=O)c(C#N)c1C
  FEN1 inhibitor: 6%
  N370S GC: -1%
Cc1nc2nc(SCC(=O)N3CCC4(CC3)OCCO4)nn2c(C)c1Cc1ccccc1
  FEN1 inhibitor: 0%
  N370S GC: -6%
CC(=O)C1=C(C)OC(N)=C(C(=O)OC(C)C)C12C(=O)Nc1ccccc12 (configuration not stated)
  FEN1 inhibitor: -4%
  N370S GC: -9%
